Screening results as filed in PubChem.
2A StopGo = High Throughput Screening for Foot and Mouth Disease Virus Antivirals; human cells with a luciferase reporter of 2A StopGo recoding; control for the full effect not named in the record; Potency, µM (highest dose often 57.9 µM), inactives show at the top dose signal change, negative = less light; hit rate 1.2% among 410,000; active = well fitted falling curve with a large enough effect; inconclusive = small, poorly fitted or top-dose-only effect; inactive = no such curve, though single readings can be large or run the other way; tested in HEK293T cells; also: % is scaled to controls: 0 for no effect and ±100 for the full control effect; nearly all actives have a fitted effect of over 45% in size; luciferase light after 4 h
Cruzain inh Det = qHTS Assay for Promiscuous and Specific Inhibitors of Cruzain (with detergent) | Cruzipain (Trypanosoma cruzi), P25779 | purified cruzain, Z-FR-AMC fluorescence, 0.01% Triton | hit rate 0.43% among 200,000 | AID 1478, 2009 | Potency, µM, inactives show max response, negative = inhibition, usual class: inhibitors;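 also: plate controls were neutral wells for no effect and buffer without enzyme for full effect; nearly all actives have a fitted effect of over 40% in size; top concentration of the series not given in the record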
Target sequence (P25779 123-467 limits assumed): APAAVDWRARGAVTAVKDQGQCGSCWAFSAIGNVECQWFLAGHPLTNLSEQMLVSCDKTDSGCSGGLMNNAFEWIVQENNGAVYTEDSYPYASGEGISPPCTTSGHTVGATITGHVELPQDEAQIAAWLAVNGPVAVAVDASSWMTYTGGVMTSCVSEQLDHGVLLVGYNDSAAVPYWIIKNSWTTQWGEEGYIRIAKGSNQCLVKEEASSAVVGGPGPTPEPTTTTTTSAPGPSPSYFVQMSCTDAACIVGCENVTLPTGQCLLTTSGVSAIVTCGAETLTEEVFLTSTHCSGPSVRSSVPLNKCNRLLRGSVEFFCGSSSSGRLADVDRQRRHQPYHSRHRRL
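Cruzain (1.5 nM) preincubated 15 min at RT with compound in 100 mM sodium acetate pH 5.5, 5 mM DTT, 0.01% Triton X-100. Reaction started with 2 uM Z-FR-AMC; AMC fluorescence (ex 360/em 450 nm) change over 60 s gave rate.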
Cruzain inh noDet = qHTS Assay for Promiscuous and Specific Inhibitors of Cruzain (without detergent). Cruzipain (Trypanosoma cruzi), P25779. purified cruzain, Z-FR-AMC fluorescence, no detergent. Potency, µM, for the others: max response, negative = inhibition, most hits filed as inhibitors. hit rate 2.3% among 200,000. AID 1476, 2009;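 also: plate controls were enzyme without inhibitor for no effect and buffer without enzyme for full effect; nearly all actives have a fitted effect of over 40% in size; top concentration of the series not given in the record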
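Purified cruzain at 1.5 nM, pre-incubated 15 min with compound at room temperature in 100 mM sodium acetate pH 5.5, 5 mM DTT, 0.00005% Triton X-100. Reaction started with 2 uM Z-FR-AMC; AMC fluorescence increase over 60 s gives rate.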
NS1 function inh = qHTS Assay for Inhibitors of Influenza NS1 Protein Function. S. cerevisiae slowed by influenza A NS1, growth recovery by OD600. Potency, µM (series often up to 46.1 µM), inactives show at the top dose activity, positive = more growth. hit rate 0.4% among 270,000. AID 2326, 2010; active means well fitted rising curve with a large enough effect; inconclusive means small, poorly fitted or top-dose-only effect; inactive means no such curve, though single readings can be large or run the other way; also: nearly all actives have a fitted effect of over 50% in size
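In this qHTS, NS1 from influenza A is expressed in budding yeast, where it slows growth. Cells are switched from glucose to 2% galactose medium (pH 6.0, -URA), treated with compound, and growth recovery is read at OD600.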
LASV entry inh = qHTS for Inhibitors of binding or entry into cells for Lassa Virus; Potency, µM (top dose mostly 37.9 µM), for the others: top-dose activity change, negative = inhibition, actives largely listed as inhibitors; hit rate 1.2% among 300,000; Lassa virus pseudotype entry inhibition, cell reporter; control for the full effect not named in the record; active means well fitted inhibition curve with a large enough effect; inconclusive means small, poorly fitted or top-dose-only effect, or effect the other way; inactive means flat fitted curve, though single readings scatter; tested in HEK293 cells; also: % is scaled to controls: 0 for no effect and ±100 for the full control effect; nearly all actives have a fitted effect of over 50% in size; luciferase read-out
SARS PLP yeast = qHTS of Yeast-based Assay for SARS-CoV PLP; S. cerevisiae expressing SARS-CoV PLpro, growth rescue; control for the full effect not named in the record; Potency, µM (series often up to 32.9 µM), without a hit: at the highest dose activity, positive = growth rescue; hit rate 0.19% among 330,000; AID 485353, 2010; active means well fitted rising curve with a large enough effect; inconclusive means small, poorly fitted or top-dose-only effect; inactive means no such curve, though single readings can be large or run the other way; also: 0% is about no effect; nearly all actives have a fitted effect of over 55% in size; growth read by luminescence after 48 h
RE007 growth inh = qHTS Assay for Inhibitors of the HIV-1 protein Vpr; Potency, µM (titrated, usually from 92.2 µM), without a hit: top-dose activity change, negative = less growth; S. pombe RE007 Vpr strain, BacTiter-Glo ATP luminescence, 24 h; control for the full effect not named in the record; hit rate 0.21% among 360,000; active = well fitted falling curve with a large enough effect; inconclusive = small, poorly fitted or top-dose-only effect; inactive = no such curve, though single readings can be large or run the other way;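 also: % is scaled to controls: 0 for no effect and ±100 for the full control effect; nearly all actives have a fitted effect of over 50% in size; the assay follows cell death caused by Vpr and the record does not say whether a fall means rescue or toxicity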
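Fission yeast RE007 carrying one integrated HIV-1 vpr copy, seeded at OD 0.01 in PMG+AL medium with 23 nL pinned compound. Grown 24 h at 30 degrees; viability read by BacTiter-Glo luminescence after 5 min.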
Marburg entry inh = qHTS for inhibitors of binding or entry into cells for Marburg Virus; Potency, µM (highest dose often 37.8 µM), for inactives: top-dose activity change, negative = inhibition, most hits filed as inhibitors; hit rate 1.8% among 300,000; Marburg virus pseudotyped entry inhibition, cell reporter; control for the full effect not named in the record; about a third of the inactives were read at about 46 µM; active = well fitted inhibition curve with a large enough effect; inconclusive = small, poorly fitted or top-dose-only effect, or effect the other way; inactive = flat fitted curve, though single readings scatter; tested in HEK293 cells; about a fifth of its hits are not listed in these tables; also: % is scaled to controls: 0 for no effect and ±100 for the full control effect; luciferase read-out
* marks the source's active call; other numbers are inactive results; u = inconclusive; x = not tested or not shown; & = joins results of further samples; [ ] = remark or other dose. Unless noted, calls follow the shape of the dose curve; as a rule, active = well fitted curve in the direction sought with a large enough effect; inconclusive = small, poorly fitted or top-dose-only effect, or another doubt; inactive = no such curve, though single readings can be large; an effect the other way counts as inactive or inconclusive. Potency is read from the fitted curve at half-maximal effect.

SMILES	2A StopGo	Cruzain inh Det	Cruzain inh noDet	NS1 function inh	LASV entry inh	SARS PLP yeast	RE007 growth inh	Marburg entry inh
COCCSc1ccccc1C(=O)N1CCOCC1	18%	1.9%	0%	5%	6%	4%	6%	14%
Cc1nc2sc(C(N)=O)c(N)c2c2c1CCCC2	35%[activator]	x	x	-5%	12%[46.1 µM]	0%	0%	-14%[46.1 µM]
CCc1nnc(SCC(=O)Nc2nc(C)c(C(=O)N(C)C)s2)n1CC	-13%	x	x	-16%	11%	u	-7%	29%
CCOC(=O)c1sc(=S)n(-c2ccccc2)c1N	-26%	-8.1%	-13%	17%	4%	14%	10%	17%
Cc1cccc(-c2nc3c4ccccc4nc(N4CCN(c5cccc(Cl)c5)CC4)n3n2)c1	-18%	-0.2%	15%	x	x	x	x	u
Cc1nnc(Sc2nc3c(c(=O)[nH]c(=O)n3C)n2CCCc2ccccc2)s1	x	-2.2%	0%	3%	x	-7%	x	0%
CCO/C=C1/C(=O)N(C(C)=O)c2ccccc21	-11%	-2.6%	1%	1%	17%	16%	-5%	-19%
Cc1ccccc1-n1c(O)c(C=NCCN2CCOCC2)c(=O)[nH]c1=O	28%	2.5%	-2%	15%	-7%	3%	17%	1%
O=C(NC1CCCCC1)N1C[C@H]2C[C@@H](C1)c1cccc(=O)n1C2	2%	x	x	3%	2%[46.1 µM]	4%	-10%	26%[46.1 µM]
CC1CCC/C(=C\Nc2ccc(C(=O)O)c(O)c2)C1=O (stereo not drawn)	-16%	x	x	-2%	8%	1%	0%	-5%[46.1 µM]
Cc1ccc(/C=N/NC(=O)CSc2nc3ccccc3[nH]2)o1	14%	x	x	4%	4%	1%	-17%	-1%
O=C(CNS(=O)(=O)c1ccc2ccccc2c1)OCc1nnc(-c2ccccc2)o1	-5%	-29%	-1%	-74%	4%	-4%	-9%	4%
CC(C)Cc1nnc(NC(=O)CCC(=O)N2CCN(c3ccccc3)CC2)s1	-29%	x	x	-9%	x	-18%	11%	x
CCNC(=S)N(Cc1cc2c(C)ccc(C)c2[nH]c1=O)C1CCCC1	-6%	x	x	5%	x	0%	21%	x
CN(C)/C=C/C(=O)c1ccncc1	3%	x	x	4%	-7%[46.1 µM]	-1%	0%	-3%[46.1 µM]
Cc1nc2cc(NS(=O)(=O)c3cccc4cccnc34)ccc2s1	-29%	x	x	-1%	-18%	1%	-17%	-27%
Cc1ccc(NC(=O)CSc2ncn[nH]2)c([N+](=O)[O-])c1	5%	x	x	x	10%	-22%	-13%	-3%
CC(C)C(=O)Nc1cccc(C(=O)Nc2ccc(S(=O)(=O)N3CCOCC3)cc2)c1	-22%	x	x	-10%	u	8%	-15%	-11%
Cc1cc2nc(/C=C/c3cccnc3)[nH]c2cc1C	50%[activator]	x	x	2%	x	-3%	-16%	x
Nc1ccc(Sc2ccccc2CC(=O)O)cc1	x	1.9%	-6%	8%	x	2%	x	-6%
CC(=O)N1CCc2cc(S(=O)(=O)NCCC(=O)NCCc3ccc(C)cc3)ccc21	u	0.9%	6%	-7%	u	2%	7%	u
Cc1ccc(NC(=O)N2C3CCCC2CC(NC(=O)C2CC2)C3)cc1 (stereo not drawn)	6%	x	x	-2%	8%	-6%	8%	21%[46.1 µM]
O=C(Nc1cccc(-c2nc3ccccc3[nH]2)c1)c1c(F)cccc1F	-11%	-7.1%	u	x	16%[46.1 µM]	x	x	x
Cc1ccc(CN2C(=O)C(=O)N(CC(N)=O)C2=O)cc1	6%	x	x	3%	17%[46.1 µM]	0%	-14%	-2%[46.1 µM]
COc1ccccc1CNC(=O)Cn1cc([N+](=O)[O-])ccc1=O	-11%	x	x	0%	x	-8%	-14%	x
Cc1nn(C)c(=O)n1-c1ccc(OCc2ccccc2)cc1	39%[activator]	-3.2%	3%	-8%	-20%	5%	-10%	0%
Cc1ccccc1CN1CCNCC1	-5%	x	x	2%	9%[46.1 µM]	1%	5%	7%[46.1 µM]
CCN(CC)S(=O)(=O)c1ccc(NC2CCN(Cc3ccccc3)CC2)nc1	36%[activator]	x	x	5%	-2%[46.1 µM]	x	0%	u
CCn1cc(/C=C2/SC(=S)NC2=O)c(C)n1	-8%	-10%	-8%	-31%	-3%	-16%	-6%	u
Cc1ccc([N+](=O)[O-])cc1NC(=O)C1CCCC1	-2%	x	x	-8%	11%[46.1 µM]	-1%	1%	4%[46.1 µM]
CN1CCN(c2ccc(NC(=O)c3ccc4c(c3)OCCO4)cc2Cl)CC1	33%[activator]	x	x	0%	u	0%	-4%	u
CC1C/C(=C/c2cccn2C)C(=O)/C(=C/c2cccn2C)C1 (stereo not drawn)	u	-20%	u	27%	u	-15%	u	u
O=C(NC1CCCCC1)c1cc(S(=O)(=O)N2CCCC2)ccc1Cl	-16%	x	x	15%	-15%[46.1 µM]	-5%	7%	-18%[46.1 µM]
COc1ccc(/C(C)=N/Nc2cccc(C(=O)O)c2)cc1OC	0%	x	x	x	u	4%	-7%	-1%
Cc1onc(-c2ccccc2)c1C(=O)Nc1nnc(N2CCCCCC2)s1	-25%	-2.2%	5%	-54%	x	-2%	2%	x
Nc1ccc(Sc2ccccc2)nc1	26%	x	x	x	1%	x	1%	-6%[46.1 µM]
COc1ccc(N(CC(=O)Nc2ccc(C)c(C)c2)S(=O)(=O)c2ccc(C)cc2)cc1OC	-19%	0.0%	4%	x	-9%[46.1 µM]	x	x	x
Cc1ccc(C(=O)C(c2ccccc2)N2Cc3ccccc3C2=N)cc1 (stereo not drawn)	32µM*	-26%	-6%	-34%	u	-86%	13%	u
CCOc1ccc(NC(=O)CSc2nnc(Cc3ccccc3)c(=O)n2N)cc1	-6%	x	x	x	-9%	1%	15%	14%
CCOC(=O)c1c(NC(=O)C2c3ccccc3Oc3ccccc32)sc(C)c1CC	-25%	-2.5%	10%	x	-15%[46.1 µM]	x	x	-1%[46.1 µM]
O=[N+]([O-])c1ccc(Sc2ccccc2)nc1	-5%	-4.7%	-18%	15%	5%	-3%	3%	-3%
CC(C)CCn1c(SCc2c(F)cccc2Cl)nc2ccsc2c1=O	u	4.1%	2%	x	-10%[46.1 µM]	x	x	x
CCN(c1ccccc1)S(=O)(=O)c1ccc(C(=O)NCCCn2ccnc2)cc1	-4%	x	x	x	0%[46.1 µM]	1%	-18%	7%[46.1 µM]
COc1cc(/C=N/NC(=O)c2cccc(S(=O)(=O)N3CCCC3)c2)cc(OC)c1O	-5%	x	x	x	u	5%	7%	15%
CC1CN(C(=O)Nc2ccc(Br)cc2Cl)CC(C)O1 (stereo not drawn)	1%	x	x	0%	1%	0%	17%	4%[46.1 µM]
COc1ccc(N2CCN(C(=O)Cn3cnc4c3c(=O)n(C)c(=O)n4C)CC2)cc1	-4%	x	x	x	-1%	0%	55%	-4%[14.2 µM]
Cc1ccc(C)c(NC(=O)NCCN2CCCCC2)c1	-3%	x	x	0%	25%[46.1 µM]	2%	4%	-10%[46.1 µM]
CC(C)c1nn2c(=O)cc(COC(=O)c3ccc4c(c3)OCO4)nc2s1	-6%	-2.7%	1%	x	-3%[46.1 µM]	x	x	x
CCOC(=O)Cc1csc(NC(=O)c2sc3nc4cc(C)ccc4cc3c2N)n1	-18%	-5.2%	2%	14%	19%	10%	-9%	u
CC(CN1CCOCC1)OC(=O)C(C)(c1ccccc1)c1ccccc1 (stereo not drawn)	-19%	-0.6%	23%	2%	-21%	-20%	-16%	-25%
CCC(=O)Nc1ccc(C)cc1-c1nc2ccccc2n(CC(=O)c2ccc(C)cc2)c1=O	-22%	-4.3%	10%	x	-19%[46.1 µM]	x	x	0%[46.1 µM]
CCOC(=O)C1CCCN(C(=O)c2sc3nc(-c4ccc(F)cc4)cn3c2C)C1 (stereo not drawn)	u	0.5%	u	-66%	-15%	-27%	-4%	-16%
CCOc1ccc(CNS(=O)(=O)c2c(C(=O)N3CCC(C)CC3)c(C)n(C)c2C)cc1OC	11%	0.4%	15%	x	7%[46.1 µM]	x	x	x
Cc1ccc(C)c(NC(=O)Cn2c(=O)n(Cc3ccco3)c(=O)c3oc4ccccc4c32)c1	-19%	-2.5%	-19%	x	-13%[46.1 µM]	x	x	x
Cn1c(N)c(C(=O)COC(=O)c2cc(-c3ccco3)nc3ccccc23)c(=O)n(Cc2ccccc2)c1=O	x	u	u	14µM*	12%	-3%	x	2%&2%
CC(C)O/N=C1\C(=O)N(c2ccccc2)c2ccccc21	-13%	x	x	x	9%[46.1 µM]	-2%	-13%	-7%
Cn1c(=O)n(CC(=O)Nc2ccccc2)c2ccccc21	3%	4.0%	1%	12%	0%	16%	3%	2%
Cc1cc(C(=O)CSc2nnc(N)s2)c(C)n1C1CC1	43%[activator]	x	x	x	-20%	2%	11%	11%[46.1 µM]
Cc1ccc(S(=O)(=O)N2CCCCC2)cc1NC(=O)CSc1nncn1-c1ccccc1	u	x	x	-2%	u	1%	8%	-16%[46.1 µM]
Cc1ccc(NC(=O)c2ccc3c(O)c(S(=O)(=O)c4ccccc4)c(=O)[nH]c3c2)cc1Cl	-11%	-11%	-1%	x	8%[46.1 µM]	x	x	x

Remaining list, next part
SMILES	2A StopGo	Cruzain inh Det	Cruzain inh noDet	NS1 function inh	LASV entry inh	SARS PLP yeast	RE007 growth inh	Marburg entry inh
NC(=O)c1ccc(NCC2CCCO2)c([N+](=O)[O-])c1 (stereo not drawn)	-2%	x	x	13%	14%	0%	-9%	15%[46.1 µM]
COc1ccc(NC(=O)C(Cc2ccccc2)NC(=O)c2ccco2)cc1OC (stereo not drawn)	1%	-2.3%	-1%	-6%	-4%	x	5%	18%
Cc1onc(-c2ccccc2)c1C(=O)OCCOc1ccccc1F	-7%	x	x	-46%	-28%	-5%	-7%	-26%[46.1 µM]
CCOc1ccc(NC(=O)Cc2ccccc2)c([N+](=O)[O-])c1	25%	-0.2%	-10%	-16%	4%	u	-6%	u
CCCC12C(=O)C(C)(C(c3ccccc3)=C1c1ccccc1)C1C(=O)N(c3ccc(C)cc3)C(=O)C12 (stereo not drawn)	u	-1.0%	20µM*	10µM*	u	9%	3%	u
